Screening data: PubChem, several laboratories
ugtP null kill: growth inhibition of ugtP-null S. aureus, primary screen, RN4220 ugtP deletion, OD600 | 16 h; some inactives read as strong as hits | 0.54% of 330,000 active | growth inhibition, % (no concentration beside the values);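 active = z-score under -3 and OD600 up to 0.15 on both plates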;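 note: plate controls were untreated wells for no effect and antibiotic for full effect; wells of about 80 µL received 100 nL stock; the first replicate is given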
Autofluor counter: flagged as autofluorescent in microsphere protease counterscreen; fluorescence intensity (concentration not given with the values); 3.1% of 360,000 active; compound autofluorescence counterscreen, microsphere flow cytometry; hits give high values;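 active = at least 3 SD above the mean of all compounds, about 16000 in these data; inconclusive = too few beads counted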;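 note: 100 nL of 1 mM stock went into each well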
RN4220 kill: growth inhibition of S. aureus RN4220, primary screen, OD600; 16 h; inhibition, % (concentration not given with the values); 0.33% of 330,000 active;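 active = z-score of -3 or lower and OD600 up to 0.18 on both plates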;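 note: plate controls were untreated cells for no effect and reference antibiotic for full effect; stock transfer was 100 nL into about 80 µL; one replicate is shown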
PrP UTR inh: inhibition of PrP 5' UTR reporter expression. cell-based PrP 5' UTR mRNA reporter, plate reader. inhibition, % (concentration not given with the values). 0.35% of 340,000 active. AID 488862, 2010;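 active = every replicate at 50% or more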;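 note: 0 = median of the neutral control wells; tested in H4 reporter cells; numbers are from one replicate; inactives centre near -14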
BJeLR viability: MLPCN primary cell-based screen for lethality selective to Ras in HRASV12 cells; AID 1554, 2009; BJeLR (HRASV12) viability, CellTiter-Glo ATP luminescence, 48 h; reference of the scale not given here; inhibition, % (test concentration not listed); 0.17% of 300,000 active;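 active = replicate mean above 50%; inconclusive = above 50% but judged a plate artefact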;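 note: 50 nL library stock added to about 25 µL; numbers are from one replicate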
Mtb hypoxia rep: PubChem AID 1159583; fluorescence inhibition, % (test concentration not listed); M. tuberculosis hypoxia-regulated fluorescent reporter, fluorescence; 0.1% of 300,000 active;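 active = 35 to 45% if threefold the growth effect, above 45% if 1.5-fold the growth effect; inactive = the rest, general growth blockers included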;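 note: wells of about 50 µL received 100 nL stock; 0% = vehicle wells and 100% = reference inhibitor wells; whole bacteria with a GFP reporter of the hypoxia response; strong numbers were not always called active; many hits fall short of the cut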
Mtb hypoxia rep growth: also measured in Mtb hypoxia rep; calls as there; growth inhibition, %; measured here: M. tuberculosis growth (absorbance);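 0% = vehicle and 100% = reference antibiotic; read after six days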
The depositor's hits bear a star; ? = inconclusive; . = not tested or not shown. Rows are unselected. Share with any hit: about 4%.

Preview, four compounds:
The line under a structure holds: ugtP null kill	Autofluor counter	RN4220 kill	PrP UTR inh	BJeLR viability	Mtb hypoxia rep	Mtb hypoxia rep growth
> O=C(NCCCN1CCOCC1)c1ccccc1NS(=O)(=O)c1cc([N+](=O)[O-])ccc1Cl
 : 16	2531	9.8	-5	-2	8	5
> Cc1ccccc1CN(C)C(C)C(=O)Nc1ccccc1F (stereo not drawn)
 : 10	5563	8.2	-25	7	10	3
> CC(C)C(NC(=O)C(c1ccccc1)c1ccccc1)c1nc2ccccc2[nH]1 (stereo not drawn)
 : 23	2951	6.7	-5	3	5	-3
> O=c1[nH]c(=S)n(C2CCCCC2)c(O)c1C=NCCN1CCOCC1
 : 9	.	1.1	-24	4	1	-3

The list itself, from the start:
The line under a structure holds: ugtP null kill	Autofluor counter	RN4220 kill	PrP UTR inh	BJeLR viability	Mtb hypoxia rep	Mtb hypoxia rep growth
> O=C(NCCCN1CCOCC1)c1ccccc1NS(=O)(=O)c1cc([N+](=O)[O-])ccc1Cl
 : 16	2531	9.8	-5	-2	8	5
> Cc1ccccc1CN(C)C(C)C(=O)Nc1ccccc1F (stereo not drawn)
 : 10	5563	8.2	-25	7	10	3
> CC(C)C(NC(=O)C(c1ccccc1)c1ccccc1)c1nc2ccccc2[nH]1 (stereo not drawn)
 : 23	2951	6.7	-5	3	5	-3
> O=c1[nH]c(=S)n(C2CCCCC2)c(O)c1C=NCCN1CCOCC1
 : 9	.	1.1	-24	4	1	-3
> Cc1nc2c3cnn(-c4ccc(C)c(C)c4)c3ncn2n1
 : -7	2362	15	-113	9	3	9
> CC(C)CC(NC(=O)c1[nH]cnc1C(=O)Nc1ccc(CNC(=O)OC(C)(C)C)cc1)C(=O)OCc1ccccc1 (stereo not drawn)
 : 4	.	2.7	.	.	-11	4
> CNC(=O)COC(=O)c1c2c(nc3ccccc13)CCC2
 : -2	3544	-1.8	-16	1	-6	-4
> CC(CC(=O)NC1CCCC1)=NNC(=O)Cc1cccs1
 : 5	.	0.8	.	.	-1	7
> N=C(N)N1CCN(Cc2ccccc2)CC1
 : 3	.	-0.8	.	-2	6	-1
> O=C1CC(C(F)(F)C(F)(F)C(F)(F)C(F)(F)F)=Nc2ccccc2N1
 : 0	2626	3.3	-4	-6	.	.
> Cc1cccc(NS(=O)(=O)c2ccc(C)c(C(=O)NCc3ccccn3)c2)c1
 : -2	5778	-0.6	1	.	4	3
> Cc1ccc(C(=O)CSC2=NC(N)=C(C#N)C3(CCCCC3)C2C(N)=O)cc1 (stereo not drawn)
 : -11	9915	12	-26	-7	12	5
> C/C(=N\NC(=O)CN(c1ccccc1Br)S(C)(=O)=O)c1ccc2c(c1)OCCO2
 : .	2111	.	1	13	.	.
> CC(CN1CCN(C)CC1)OC(=O)c1ccc(Cl)cc1 (stereo not drawn)
 : 6	4731	5.4	-25	5	12	8
> O=C(CNC(=O)c1ccncc1)NN=Cc1cccc([N+](=O)[O-])c1
 : 15	.	2.1	.	.	1	4
> Cc1oncc1-c1csc(-c2ccccc2Cl)n1
 : 5	3344	10.0	-20	4	4	9
> CCc1nnc(NN=Cc2cc(C)c(C)cc2C)n1N
 : -1	.	5.8	.	.	-1	-3
> C/C(=N\NC(=O)Cc1cc(=O)[nH][nH]1)c1cccc([N+](=O)[O-])c1
 : .	2390	.	-11	-1	.	.
> O=C(Nc1nc2ccc(F)cc2s1)C1CCCO1 (stereo not drawn)
 : -5	7548	3.6	-144	3	10	6
> CCC(=O)N1CCc2cc(OC)c(OC)cc2C1COc1ccc(C(=O)OC)cc1 (stereo not drawn)
 : 14	21370*	0.3	-15	.	3	4
> CCOCCCN(C)C1CCN(C(=O)c2oc3ccccc3c2NC(=O)Cc2ccc(F)cc2)CC1
 : -2	4697	-2.3	6	0	5	1
> O=C(Cn1nc(C(=O)O)c2ccccc2c1=O)Nc1cccc(S(=O)(=O)N2CCOCC2)c1
 : -1	3609	-1.9	-11	.	3	10
> Cc1ccc(C(=O)NCC(=O)OCCCOC(=O)CNC(=O)c2ccc(C)cc2)cc1
 : 2	?	0.8	-19	-14	4	-6
> CC1CCCC(NC(=O)CC2Nc3ccccc3NC2=O)C1C (stereo not drawn)
 : -7	?	-14	-6	1	5	9
> c1ccc(-c2cn(CC3CCC(C4CCC(Cn5cc(-c6ccccc6)nn5)O4)O3)nn2)cc1 (stereo not drawn)
 : 15	.	1.9	.	.	19	6
> COc1ccc(OCCNC(=O)/C=C/c2ccccc2)cc1
 : 16	3472	2.9	-13	3	19	10
> Cc1c(C(=O)NCCSCc2ccccc2)cccc1[N+](=O)[O-]
 : 1	4754	7.6	-4	-6	-2	8
> COC(=O)[C@@H]1CCCN1C(=O)CCc1nnc(CCC2CCCCC2)o1
 : -2	2329	0.1	-75	19	0	10
> N#Cc1c(-c2ccccc2)nc(SCc2ccc([N+](=O)[O-])cc2)[nH]c1=O
 : -3	4047	3.9	14	-3	0	-2
> COc1ccc(NC(=S)NC(=O)c2ccccc2Cl)cc1
 : 29	2159	0.6	-35	-13	11	10
> Fc1ccccc1C=NNc1nc2ccccc2o1
 : 5	.	2.6	.	.	4	1
> O=C(CNCc1ccccc1Cl)Nc1ccccc1N1CCCCC1
 : 10	3617	1.3	-31	4	8	9
> CC(C)(C)OC(=O)N1CCC(NC(=O)c2[nH]cnc2C(=O)Nc2ccon2)CC1
 : -5	3933	4.4	4	.	-9	-3
> COc1ccccc1C(=O)C1CCCN(C(=O)CCc2ccccn2)C1 (stereo not drawn)
 : 2	2732	3.5	-14	-3	3	10
> CN(c1ccccc1)c1cc(Br)nc(Br)c1
 : 19	3867	3.3	-11	-2	-7	-3
> O=C(Nc1cccc(Cl)c1)NC1CC2CCC(C1)N2Cc1ccco1 (stereo not drawn)
 : 4	3947	0.6	-9	-1	3	6
> COc1ccc(N(Cc2ccccc2)S(=O)(=O)c2cccc(C(=O)NC3=NCCS3)c2)cc1
 : 11	4401	-3.0	4	-3	.	.
> Cc1ccc(S(=O)(=O)N(C)CC(=O)NNC(=O)Cc2ccccc2F)cc1
 : 2	3560	1.9	8	.	2	7
> CCOC(=O)c1cnc(SCC(=O)Nc2cc(OC)cc(OC)c2)nc1N
 : -4	9940	-3.5	-24	-6	-4	7
> c1coc(-c2nc3nc4ccccc4nc3n2CC2CCCO2)c1 (stereo not drawn)
 : -5	22833*	0.0	-8	-15	-5	19
> COc1ccc(-c2cc(=O)oc3cc(OCC(=O)N(C)C4CCS(=O)(=O)C4)ccc23)cc1 (stereo not drawn)
 : 1	4306	0.5	8	0	-12	-9
> CCOC(=O)C1CCCN(C(=O)Cn2nc(Cc3cccnc3)c3ccccc3c2=O)C1 (stereo not drawn)
 : -3	6684	-8.6	-3	7	12	12
> CC1=NNC(=O)C1CCC(=O)N/N=C\c1ccc(Cl)c(Cl)c1 (stereo not drawn)
 : .	4691	.	-9	-10	.	.
> O=S1(=O)N=C(Nc2nncs2)c2ccccc21
 : 7	22257*	0.9	-4	0	1	1
> COc1ccc(-c2nnc(N3CCC(C)CC3)c3ccccc23)cc1
 : 7	?	3.9	-8	4	7	6
> COc1nc(NCc2ccco2)nc(N2CCC(C)CC2)n1
 : -3	4574	1.7	-17	4	.	.
> COCCN1CCN(C(=O)C2CCC(=O)N(Cc3cccc(C(F)(F)F)c3)C2)CC1 (stereo not drawn)
 : 2	5754	1.8	-2	-6	6	6
> O=C(C1CCC(CNc2c(N3CCCCC3)c(=O)c2=O)CC1)N1CCCCC1 (stereo not drawn)
 : 0	5630	1.3	-9	-12	.	.
> CC1(C)Cc2noc(N)c2C(C)(C)N1OC(=O)c1cccs1
 : 13	2632	3.8	-15	24	.	.
> Cc1[nH]c2ccc(OC(=O)N3CCOCC3)cc2c1C(=O)OC(C)C
 : 2	10867	3.5	-25	4	2	5
> COc1ccc(NC(C)=O)cc1S(=O)(=O)N1CC=C(c2ccccc2)CC1
 : -3	3375	5.3	-42	.	7	3
> CCOc1cc(/C=C2\SC(N3CCCCC3)=NC2=O)ccc1O
 : 7	3056	9.3	4	11	8	4
> COC(=O)c1ccc(N)nc1
 : -4	4109	-4.5	-10	5	4	1
> CSc1ccc(CCNC(=O)c2cc(C)nn2-c2ccccc2)cc1
 : 12	4897	2.2	-10	-5	5	-2
> C/C(=N\NC(=O)OC(C)(C)C)c1ccc(-n2ccnc2)cc1
 : .	3205	.	45	2	.	.
> CC(C)c1nnc(NC(=O)CCC2CCCCC2)s1
 : 5	4132	6.2	-44	-6	6	-6
> CCOC(=O)C1CCN(C(=O)c2cn(CCOC)c(=O)c3c2c2ccccc2n3C)CC1
 : 0	23452*	0.8	-24	0	2	0
> Cn1c(CN2CCN(c3cccc(Cl)c3)CC2)nc2ccccc21
 : 6	?	-1.6	11	3	8	9
> Cc1cc(C(=O)c2cccs2)c(N)s1
 : -11	11379	16	-25	-3	19	10
> O=C(CC1(c2ccc(Cl)cc2)C2CC3CC(C2)CC1C3)NCCO (stereo not drawn)
 : 8	3868	6.9	-9	8	11	13

Continued:
The line under a structure holds: ugtP null kill	Autofluor counter	RN4220 kill	PrP UTR inh	BJeLR viability	Mtb hypoxia rep	Mtb hypoxia rep growth
> Cc1ccc(C(=O)N/C(=C\c2ccc(-c3cccc([N+](=O)[O-])c3)o2)C(=O)NC(C)(C)C)cc1
 : 6	2492	-0.5	-6	-12	4	-4
> COc1cc(NN=C(C)c2ccc(N)cc2)nc(-c2ccccc2)n1
 : -1	.	-12	.	.	-6	-3
> COC(=O)N/N=C/c1cn(CC(C)COc2ccccc2)c2ccccc12 (stereo not drawn)
 : .	2038	.	-16	8	.	.
> O=C(COC(=O)CCN1C(=O)C2CC=CCC2C1=O)NCCc1ccccc1 (stereo not drawn)
 : 2	4216	3.4	-23	-7	3	1
> Cc1ccc(S(=O)(=O)NN=Cc2cccs2)cc1
 : -4	.	6.1	.	.	-3	-5
> CCOC(=O)C1=C(c2ccccc2)OC(N)=C(C#N)C1c1ccco1 (stereo not drawn)
 : -5	9601	4.3	0	.	2	-4
> Cc1ccc(S(=O)Cc2ccc(C(=O)N3CCN(C(=O)c4ccco4)CC3)o2)cc1 (stereo not drawn)
 : 8	5248	5.1	-4	7	10	12
> Cc1coc2c1c(C)cc1oc(=O)c(CC(=O)NCCC(=O)O)c(C)c12
 : 4	3695	2.9	-6	-1	8	-8
> Cc1ccc(-n2nnc3c(=O)n(CC(=O)N4CCOCC4)cnc32)cc1
 : 1	6307	6.8	-23	13	-9	6
> CC(CC(=O)N1CCN(c2ccc(C(F)(F)F)cn2)CC1)n1ccnc1 (stereo not drawn)
 : 6	3572	1.7	-24	5	8	-2
> CCOC(=O)c1nn(-c2ccc(F)cc2)c2c1CCC2=Cc1ccccc1
 : -16	.	7.7	.	.	-5	-6
> CN1CC(=O)NC1=NC(=O)c1ccc(Cl)c(S(=O)(=O)N2CCCCCC2)c1
 : 1	3473	5.2	-13	15	12	12
> Fc1ccccc1CN1CCCCCCC1
 : -5	7809	6.0	-14	-2	12	4
> Cc1nnc(SCC(=O)Nc2ccc(N3CCOCC3)cc2)n1-c1ccccc1
 : -4	2220	0.2	-5	-10	.	.
> Cc1cccc(CSc2nnc(-c3ccco3)n2C)c1
 : 1	.	1.3	-11	-3	0	-6
> O=C1C(=O)N(c2ccc(O)cc2)C(c2ccccc2[N+](=O)[O-])/C1=C(\O)c1ccccc1 (stereo not drawn)
 : -1	4973	-0.8	-18	-5	10	1
> Fc1ccc(NC(=S)NN=Cc2ccc(F)c(F)c2)cc1
 : 7	.	1.7	.	.	14	5
> O=C1Nc2ccccc2C(=O)N2[C@H](c3ccc(F)cc3)[C@@H]3C(=O)N(Cc4ccccc4)C(=O)[C@@H]3[C@H]12
 : .	2982	.	-6	1	.	.
> CC(C)CNS(=O)(=O)c1ccc(CCC(=O)N2CCCC2)cc1
 : 2	3237	5.5	-10	-1	6	5
> CCN(CC)C(=O)[C@H]1C[C@H](CC(=O)NCCCN(C)C)C(=O)N2CCc3c([nH]c4cc(CCC(=O)N(C)C)ccc34)[C@]12C
 : 0	3785	1.9	-13	.	-7	5
> O=C(Cc1ccc(S(=O)(=O)N2CCCC2)s1)Nc1cccc([N+](=O)[O-])c1
 : 1	3440	5.2	-26	.	4	7
> Cc1ccccc1NCc1nc2ccccc2n1C
 : 11	.	0.9	-60	26	2	2
> CC(C)CN(C(=O)COC(=O)CCN1C(=O)c2ccccc2C1=O)C1CCS(=O)(=O)C1 (stereo not drawn)
 : -8	3913	2.3	-17	-8	14	7
